# KCNQ2 block = KCNQ2 channel blockers in CHO-K1 cells – cell-based, FluxOR thallium flux, B-score, primary screen (AID 2156). B-score at 10 µM. 1.1% of 310,000 active. O88943. 20 min; hits give low values; only compounds with negative scores are shown here; some inactives read as strong as hits;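 active = fluorescence ratio B-score at most minus 3 library SDs, with starting brightness B-score within 2 library SDs, cut at about -5.5 in these data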
# Target sequence (O88943 whole entry, looked up): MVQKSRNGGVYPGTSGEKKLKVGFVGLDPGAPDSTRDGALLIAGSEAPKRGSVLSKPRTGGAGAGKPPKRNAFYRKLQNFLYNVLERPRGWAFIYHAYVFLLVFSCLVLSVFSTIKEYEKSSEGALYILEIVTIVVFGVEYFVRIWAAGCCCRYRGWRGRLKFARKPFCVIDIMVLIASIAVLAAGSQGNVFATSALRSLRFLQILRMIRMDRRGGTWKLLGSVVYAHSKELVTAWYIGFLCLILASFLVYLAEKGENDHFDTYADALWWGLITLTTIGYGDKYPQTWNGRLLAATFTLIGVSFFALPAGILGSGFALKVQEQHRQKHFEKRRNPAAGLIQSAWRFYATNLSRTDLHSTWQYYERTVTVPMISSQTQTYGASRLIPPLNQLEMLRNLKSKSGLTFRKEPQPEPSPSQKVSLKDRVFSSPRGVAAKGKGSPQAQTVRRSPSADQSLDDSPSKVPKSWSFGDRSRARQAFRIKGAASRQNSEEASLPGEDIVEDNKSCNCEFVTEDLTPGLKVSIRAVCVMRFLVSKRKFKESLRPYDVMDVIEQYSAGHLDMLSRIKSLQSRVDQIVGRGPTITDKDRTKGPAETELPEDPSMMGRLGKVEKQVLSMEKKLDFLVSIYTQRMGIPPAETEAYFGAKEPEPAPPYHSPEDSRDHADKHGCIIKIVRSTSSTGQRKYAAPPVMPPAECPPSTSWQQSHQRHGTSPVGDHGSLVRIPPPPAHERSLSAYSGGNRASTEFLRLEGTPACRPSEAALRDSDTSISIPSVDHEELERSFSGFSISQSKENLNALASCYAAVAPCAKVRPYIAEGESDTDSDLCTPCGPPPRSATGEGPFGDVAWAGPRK
# KCNQ2 block baseline = also measured in KCNQ2 block; calls as there; B-score; measured here: initial fluorescence intensity artifact check;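 brightness before thallium and not channel activity; 0 = typical well and far values either way flag optical interference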
# * = called active by the depositor; i = inactive. An excerpt. The share of hits here may be higher or lower than overall.
# A first look:
SMILES,KCNQ2 block,KCNQ2 block baseline
Cc1ccc(SCc2ccc(C(=O)Nc3cccc([N+](=O)[O-])c3C)cc2)cc1,-5.6*,-0.11*
CCOc1cc(NC(=S)NCc2ccco2)c(OCC)cc1NC(=O)c1ccco1,i,-0.21
O=S(=O)(Cc1ccc(Cl)cc1)c1ccccc1-c1nnc(-c2ccccc2)o1,i,-0.62
Cc1nn(C(C)C(=O)O)c(=O)c2c1sc1ccccc12 (configuration not stated),i,0.64
Cc1ccc(NC(=O)CN2C(=O)CC(C)S(=O)(=O)c3ccccc32)cc1 (configuration not stated),i,0.05
CN1C(=O)N(CN2CCCCC2)C2C1N(C)C(=O)N2CN1CCCCC1 (configuration not stated),i,-0.08

# This part in full (from the top)
SMILES,KCNQ2 block,KCNQ2 block baseline
Cc1ccc(SCc2ccc(C(=O)Nc3cccc([N+](=O)[O-])c3C)cc2)cc1,-5.6*,-0.11*
CCOc1cc(NC(=S)NCc2ccco2)c(OCC)cc1NC(=O)c1ccco1,i,-0.21
O=S(=O)(Cc1ccc(Cl)cc1)c1ccccc1-c1nnc(-c2ccccc2)o1,i,-0.62
Cc1nn(C(C)C(=O)O)c(=O)c2c1sc1ccccc12 (configuration not stated),i,0.64
Cc1ccc(NC(=O)CN2C(=O)CC(C)S(=O)(=O)c3ccccc32)cc1 (configuration not stated),i,0.05
CN1C(=O)N(CN2CCCCC2)C2C1N(C)C(=O)N2CN1CCCCC1 (configuration not stated),i,-0.08
O=C1CC(=O)C(n2cncn2)C(c2cccc(Cl)c2)C1 (configuration not stated),i,0.28
CCc1cc(-c2n[nH]c(=S)n2-c2cccc(C)c2)cs1,i,-2.4
CC(=O)c1c(C)[nH]c(C(=O)OCC(=O)c2c(N)n(C)c(=O)n(C)c2=O)c1C,i,0.54
CCOc1ccccc1NC1=NCC(=O)N1Cc1ccc(F)cc1,i,0.47
S=C(NCc1ccccn1)Nc1ccccc1Cl,i,0.17
O=C(NN1C(=O)c2ccccc2NC1c1ccoc1)c1ccc([N+](=O)[O-])cc1 (configuration not stated),i,0.09
COc1ccc(NC(=O)c2cc(-c3ccccn3)nc3c(C)cc(C)cc23)c(C)c1,i,-4.2
CCC(=O)n1nc(NCc2ccccc2OC)nc1NCc1ccccc1OC,-7.3*,-0.95*
O=C(Nc1nnc(CCN2CCOCC2)s1)C1CCCCC1,i,1.6
CCOC(=O)c1c(NC(=S)NC(=O)c2ccc(Cn3cc(Cl)cn3)o2)sc2c1CCCCC2,i,1.6
COc1ccc(-n2nc(C(=O)NCC(=O)N3CCC(C)CC3)c3ccccc3c2=O)c(OC)c1,i,-2.7
c1ccc(CC2CCN(c3nnnn3-c3ccccc3)CC2)cc1,i,0.64
CN1CCN(C(=O)c2ccc3c(=O)n4c(nc3c2)CCCCC4)CC1,i,-0.01
O=C(C1=C[C@H](c2ccc(Br)cc2)C[C@H](OCCCCO)O1)N1CCN(Cc2ccccc2)CC1,i,-0.31

# Fetched by compound from the entries so far, two records:
SMILES,KCNQ2 block,KCNQ2 block baseline
O=C(Nc1nnc(CCN2CCOCC2)s1)C1CCCCC1,i,1.6
CC(=O)c1c(C)[nH]c(C(=O)OCC(=O)c2c(N)n(C)c(=O)n(C)c2=O)c1C,i,0.54

# The listing continues:
SMILES,KCNQ2 block,KCNQ2 block baseline
COc1ccccc1COc1ccc2c(C)c(CCC(=O)O)c(=O)oc2c1C,i,-1.1
CC1N/C(=C\C(=O)c2ccccc2)N(O)C1(C)C (configuration not stated),i,0.6
O=S(=O)(Nc1ccc(Cl)cn1)c1ccc(Cl)cc1,i,-0.73
CC(C)CNC(=O)c1ccc(C2SCC(=O)N2Cc2ccccc2)cc1 (configuration not stated),i,-0.21
Cn1c(/C=C/N(Cc2ccccc2)c2ccccc2)c([N+](=O)[O-])c(=O)n(C)c1=O,i,1.5
COc1ccc2[nH]c(C(=O)O)c(NC(=O)c3cc(OC)c(OC)c(OC)c3)c2c1,i,-0.79
CN(C)S(=O)(=O)c1cccc(-c2nn(-c3ccccc3)cc2/C=C2\SC(=S)N(CC(=O)O)C2=O)c1,i,0.05
COc1ccc(NC2C=CS(=O)(=O)C2)c(OC)c1 (configuration not stated),i,0.1
Cc1cc([N+](=O)[O-])ccc1NC(=O)CCC(=O)N1CCCCC1,i,0.04
Cc1cccc(C(=O)O/N=C/c2ccc(Br)cc2)c1,i,-2.3
CCN(c1ccc(Cl)cc1)S(=O)(=O)c1nnc(NC(=O)C(C)C)s1,i,-0.83
CC(C)(C)C1CCC(=NNC(=O)c2cc3c(s2)CCCC3)CC1 (configuration not stated),i,-4.4
Cc1ccc(-c2noc(C3CCCN(C(=O)c4ccccc4Br)C3)n2)o1 (configuration not stated),i,0.98
Nc1ccc(C(=O)Nc2ccc(OC(F)(F)C(F)F)c(NC(=O)c3ccc(N)cc3)c2)cc1,i,-1.8
CCOc1ccc(N(CC(=O)NCCSCc2ccccc2)S(=O)(=O)c2ccccc2)cc1,i,1.3
CC1CCc2sc(C(=O)OCC(=O)NCc3ccc(F)cc3)cc2C1 (configuration not stated),i,-0.29
O=C(CCC(=O)N1CCCCCC1)Nc1ccc([N+](=O)[O-])cc1,i,-0.01
Cc1cc(C)cc(NS(=O)(=O)c2cnc(Cl)c(Cl)c2)c1,i,-1.2
O=C(NCc1ccccn1)Nc1ccc(Cl)cc1Cl,i,0.41
O=C(N/N=C/c1cc(Cl)cc(Cl)c1O)c1ccncc1,i,9.5

# Nothing new here: an excerpt of the list.
SMILES,KCNQ2 block,KCNQ2 block baseline
COc1ccccc1COc1ccc2c(C)c(CCC(=O)O)c(=O)oc2c1C,i,-1.1
CC1N/C(=C\C(=O)c2ccccc2)N(O)C1(C)C (configuration not stated),i,0.6
O=S(=O)(Nc1ccc(Cl)cn1)c1ccc(Cl)cc1,i,-0.73

# (continued)
SMILES,KCNQ2 block,KCNQ2 block baseline
CC(C)C(c1nnnn1Cc1ccc(F)cc1)N1CCN(C2CCCC2)CC1 (configuration not stated),i,0.2
CC1=C([N+](=O)[O-])C(c2ccccc2Cl)NC(=O)N1 (configuration not stated),i,0.56
CCC(C(=O)NCCc1ccco1)n1nc(C)c2c(C)n(-c3ccccc3)nc2c1=O (configuration not stated),i,-0.9
CCOCC(=O)Nc1ccc(S(=O)(=O)Nc2ncccn2)cc1,i,1.6
COCCN1C(=O)CS/C1=C(/C#N)C(=O)NCc1ccco1,i,0.06
CC(OC(=O)c1cc(=O)[nH]c2ccccc12)C(=O)Nc1ccccc1F (configuration not stated),i,1.1
S=C(Nc1ccc(N2CCOCC2)cc1)Nc1ccc2nc(-c3ccco3)c(-c3ccco3)nc2c1,i,11
COc1ccc(Cc2nnc(NC(=O)c3cc(OC)c(OC)c(OC)c3)s2)cc1,i,0.27
CN(CC(=O)NC1CC1)S(=O)(=O)c1ccc(Br)cc1,i,-0.65
O=C1CN(C(=O)N[C@@H](Cc2ccccc2)C(=O)N[C@@H](C(=O)O)c2ccccc2)c2ccccc2N1,i,-0.45
CC(C)Cc1cc(C(=O)N2CCCC(CO)(Cc3ccc(F)cc3)C2)no1 (configuration not stated),i,1.8
N#Cc1nc(-c2cccc3ccccc23)oc1NCCN1CCOCC1,i,-0.4
CC1(C)CC(NC(=O)C(Cl)(Cl)Cl)CC(C)(C)N1,i,0.01
O=C(NCc1ccc(Cl)cc1)c1noc2c1CCCC2,-6.5*,-0.79*
O=C(NCCc1ccccc1)C1CCCN(C(=O)Nc2ccc(F)cc2)C1 (configuration not stated),i,2.6
COc1ccc2c(c1OC)C(=O)N1c3cccc(Cl)c3C(=O)OC21 (configuration not stated),i,1.6
CCN1C(=O)CSc2ccc(C(=O)NCc3ccccc3OC)cc21,i,-2.4
CS(=O)(=O)N(CC(=O)N1CCc2ccccc2C1)Cc1ccc(Cl)cc1,-6*,0.66*
COc1cc(-c2n[nH]c(=S)n2-c2cccc(C(F)(F)F)c2)cc(OC)c1OC,i,0.52
Cc1nc2ccc(NC(=O)N3CCSCC3)cc2s1,i,0.39
CC(=NCc1cccc(Cl)c1)c1nc(-c2ccco2)oc1O,i,0.02
N#Cc1ccc(C(=O)NNC(=O)c2ccncc2)cc1,i,1.6
O=C(NCCN1CCCCC1)Nc1cccc(Cl)c1Cl,i,1.1
CCOC(=O)CC(=O)Nc1ccc(C(=O)OCC)cc1,i,0.28
CCN1C(=O)C(O)(CC(=O)c2c(C)coc2C)c2ccccc21 (configuration not stated),i,-1.4
O=C(CCc1ccccc1)NNC(=O)Nc1ccc(Cl)cc1,i,1.2
COc1ccc(C(=O)NC(C(=O)NCc2ccccc2OC)C(C)C)cc1 (configuration not stated),i,-0.01
Cc1cc(C)cc(NC(=O)c2ccc3c(c2)CCN3S(C)(=O)=O)c1,i,0.15
CCN(CC)c1c2c(c(C#N)c3nc4ccccc4n13)CCC2,i,0.7
O=[N+]([O-])c1ccc(COc2cccc(CNc3ccc(Br)cc3)c2)cc1,i,0.02
CCOC(=O)N1CCC(NC(=O)CS(=O)(=O)Cc2nc(-c3cccc(OC)c3)oc2C)CC1,i,2
Cc1ccc(C2CC2c2n[nH]c(=S)n2-c2cccc(Cl)c2)cc1 (configuration not stated),i,-0.47
CCn1c(SCC(=O)Nc2ccc(C(C)=O)cc2)nnc1C1CC1,i,-0.36
COC(=O)c1cc(C)sc1NC(=O)C1CC(=O)NN1Cc1ccccc1 (configuration not stated),i,-0.63
CCC/C(O)=C1\C(=O)CC(C)(C)CC1=NCc1ccccc1,i,1.9
COC(=O)C1CC(Cl)CN1c1ncc(C(F)(F)F)cc1Cl (configuration not stated),i,2.2
COc1cc(NC(=S)N2CCN(c3ccccn3)CC2)cc(OC)c1,i,-0.01
COCc1ccc([C@@H]2C[C@H]3CN(Cc4cccc(Cl)c4)C(=O)[C@]34CCCN24)o1,i,0.13
Cc1ccc(CNC(=O)CCS(=O)(=O)c2cccc3nonc23)cc1,i,-1.2
Cc1c(C(=O)O)cccc1-n1c(C)cc(/C=C(/C#N)C(=O)NCc2ccccc2)c1C,i,-0.31
Cn1c(=O)c2c(nc(CN3CCN(CCO)CC3)n2Cc2ccccc2Cl)n(C)c1=O,i,-0.13
CCOC(=O)/C(C#N)=C/N1CCOCC1,i,-2.5
c1ccc2nc3c(nc2c1)[nH]c1ccccc13,i,1.1
Cc1ccc(S(=O)(=O)NCc2cccnc2)cc1C,i,0.73
CSc1cccc(NC(=O)c2c(Cl)cnn2C)c1,i,0.1
CN1CCN(c2ccc(S(=O)(=O)N3CCOCC3)cc2)CC1,i,1.2
O=C(CCCOc1cccc(Br)c1)NCCOc1ccccc1,i,-0.84
CCOC(=O)c1c(C=O)c2ccccc2n1CC,i,0.14
Cc1cc(C)cc(-n2cc(C(=O)O)c(=O)cc2C)c1,i,-1.9
Cc1cc(C)n(-c2nc3c(c(=O)[nH]c(=O)n3C)n2C(C)C)n1,i,-0.04
O=C(c1cc2cc(Br)ccc2oc1=O)N1CCCC1,i,1.7
N/C(=N\S(=O)(=O)c1cccs1)c1ccccc1,i,-0.06
CCCC(=O)Nc1nc(C)c(-c2csc(Nc3ccccc3OC)n2)s1,i,0.05
COc1ccc(CNCc2ccccc2[N+](=O)[O-])cc1OC,i,0.89
CN(C)CC/C=C1\c2cc(Cl)ccc2Sc2cc(F)c(F)cc21,i,1.5
COC(=O)c1cn(C(=O)c2ccccc2)c2ccccc12,i,0.49
COc1ccc2c(c1)c1nc(SCC(C)C)n(CCO)c(=O)c1n2C,i,0.23
CCCCOc1ccc(-c2n[nH]c(=S)n2Cc2ccccc2)cc1,i,1.1
O=C(NC(=S)Nc1ccc(NC(=O)c2ccco2)cc1)c1ccccc1,i,2.2
Cc1ccccc1N1CCN(C(=S)c2ccc([N+](=O)[O-])cc2)CC1,i,1.8
# Going on with the list:
SMILES,KCNQ2 block,KCNQ2 block baseline
CC(Sc1nnnn1C)C(=O)Nc1ccccc1-c1ccccc1 (configuration not stated),i,1.3
COc1ccc(Cl)cc1C(=O)N1CCN(c2ccccn2)CC1,i,1.2
COc1cccc(NC(=O)COC(=O)c2ccccc2SCC(=O)N2CCCC2)c1,i,-0.54
Cc1ccc(N=C2NC(=O)CS2)cc1,i,-0.16
Cc1cccc(C)c1NC(=O)C1c2cccc[n+]2CC(=O)N1Cc1ccc2c(c1)OCO2 (configuration not stated),i,0.79
CC(C)COP(=O)(c1ccc(N(C)C)cc1)C(O)c1ccccc1F (configuration not stated),i,0.57
CCn1c2ccccc2c2cc(NC(=O)CSc3nnc(-c4ccccc4)o3)ccc21,i,0.3
O=C(Nc1cccc2c1C(=O)NC2=O)c1cccnc1Cl,i,-0.99
COc1ccc(C(=O)CC(=O)C(=O)Nc2cccc(C(C)=O)c2)cc1,i,0.16
CC1CCCN(C2=C(NS(=O)(=O)c3ccc(Br)cc3)C(=O)c3ccccc3C2=O)C1 (configuration not stated),i,-2
Cc1ccc(OCC(=O)NNC(=O)c2cc3ccccc3o2)cc1,i,1.2
COc1ccc(C)cc1NC(=O)C(NCC1CCCO1)c1ccccc1 (configuration not stated),i,0.43
COc1ccc(NC(=O)Nc2ccccc2F)c(C)c1,i,2
Cc1ccc(NC(=O)CCCn2c(=S)[nH]c3ccsc3c2=O)cc1C,i,-1.5
C/C=C/C(O)c1ccc2ccccc2c1 (configuration not stated),i,-0.1
O=C(Oc1cccc2cccnc12)c1cccs1,i,0.88
O=C(CSc1nnc(COc2ccc(Cl)cc2)o1)N1CCN(c2ccccc2)CC1,i,0.78
CC1(C)COC(Cn2c3ccccc3c3ccccc32)O1 (configuration not stated),i,-0.14
COc1ccc2c3c(cccc13)N(C)N=C2C,i,-0.46
Cc1ccc(NC(=O)c2sccc2-n2cccc2)c(Cl)c1,i,0.93

# Full records, quoted from the list.
# `Cc1ccc(OCC(=O)NNC(=O)c2cc3ccccc3o2)cc1` is listed as KCNQ2 block = i; KCNQ2 block baseline = 1.2
# `COc1cc(NC(=S)N2CCN(c3ccccn3)CC2)cc(OC)c1` is listed as KCNQ2 block = i; KCNQ2 block baseline = -0.01

# Screening data deposited in PubChem BioAssay by Johns Hopkins Ion Channel Center.
